Cruzain inh Det: cruzain (T. cruzi) inhibition with detergent. purified cruzain, Z-FR-AMC fluorescence, 0.01% Triton. Potency, µM, for inactives: max response, negative = inhibition, usual class: inhibitors. 0.43% of 200,000 active. AID 1478;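 note: plate controls were neutral wells for no effect and buffer without enzyme for full effect; nearly all actives have a fitted effect of over 40% in size; top concentration of the series not given in the record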
Target sequence (P25779 123-467 limits assumed): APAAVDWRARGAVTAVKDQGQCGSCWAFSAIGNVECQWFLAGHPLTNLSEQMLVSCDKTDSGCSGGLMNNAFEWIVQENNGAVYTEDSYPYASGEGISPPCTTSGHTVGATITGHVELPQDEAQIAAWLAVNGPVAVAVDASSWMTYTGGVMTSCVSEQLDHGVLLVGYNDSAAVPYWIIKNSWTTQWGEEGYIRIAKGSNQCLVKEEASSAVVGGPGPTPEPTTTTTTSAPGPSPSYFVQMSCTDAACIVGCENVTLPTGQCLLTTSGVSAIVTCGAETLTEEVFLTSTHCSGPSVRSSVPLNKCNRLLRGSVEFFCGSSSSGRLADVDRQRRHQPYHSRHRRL
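Detergent-containing run (0.01% Triton X-100) in acetate buffer pH 5.5 with 5 mM DTT: enzyme at 1.5 nM final, 15 min compound preincubation at room temperature, then 2 uM Z-FR-AMC substrate. Activity taken as 60 s fluorescence increase at 360/450 nm.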
Cruzain inh noDet: inhibitors of Trypanosoma cruzi cruzain without detergent; P25779; purified cruzain, Z-FR-AMC fluorescence, no detergent; Potency, µM, inactives show max response, negative = inhibition, usual class: inhibitors; 2.3% of 200,000 active; AID 1476;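 note: plate controls were enzyme without inhibitor for no effect and buffer without enzyme for full effect; nearly all actives have a fitted effect of over 40% in size; top concentration of the series not given in the record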
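Purified cruzain at 1.5 nM, pre-incubated 15 min with compound at room temperature in 100 mM sodium acetate pH 5.5, 5 mM DTT, 0.00005% Triton X-100. Reaction started with 2 uM Z-FR-AMC; AMC fluorescence increase over 60 s gives rate.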
RE007 growth inh: less growth of the S. pombe RE007 Vpr strain; S. pombe RE007 Vpr strain, BacTiter-Glo ATP luminescence, 24 h; control for the full effect not named in the record; Potency, µM (highest dose often 92.2 µM), for inactives: top-dose activity change, negative = less growth; 0.21% of 360,000 active; AID 651644; active = well fitted falling curve with a large enough effect; inconclusive = small, poorly fitted or top-dose-only effect; inactive = no such curve, though single readings can be large or run the other way;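 note: % is set by controls: 0 for no effect and ±100 for the full control effect; nearly all actives have a fitted effect of over 50% in size; the assay follows cell death caused by Vpr and the record does not say whether a fall means rescue or toxicity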
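Fission yeast RE007 carrying one integrated HIV-1 vpr copy, seeded at OD 0.01 in PMG+AL medium with 23 nL pinned compound. Grown 24 h at 30 degrees; viability read by BacTiter-Glo luminescence after 5 min.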
StopGo reporter: FMDV 2A StopGo reporter, luciferase signal; Potency, µM (top dose mostly 57.9 µM), without a hit: top-dose signal change, negative = less light; 1.2% of 410,000 active; AID 1159524; human cells with a luciferase reporter of 2A StopGo recoding; control for the full effect not named in the record; active = well fitted falling curve with a large enough effect; inconclusive = small, poorly fitted or top-dose-only effect; inactive = no such curve, though single readings can be large or run the other way; tested in HEK293T cells; note: % is set by controls: 0 for no effect and ±100 for the full control effect; nearly all actives have a fitted effect of over 45% in size; luciferase light after 4 h
Marburg entry inh: blocks Marburg virus binding to or entry into cells. Marburg virus pseudotyped entry inhibition, cell reporter; control for the full effect not named in the record; about a third of the inactives were read at about 46 µM. Potency, µM (highest dose often 37.8 µM), without a hit: top-dose activity change, negative = inhibition, most hits filed as inhibitors. 1.8% of 300,000 active. AID 540276; active = well fitted inhibition curve with a large enough effect; inconclusive = small, poorly fitted or top-dose-only effect, or effect the other way; inactive = flat fitted curve, though single readings scatter; tested in HEK293 cells; about a fifth of its hits are not listed in these tables; note: % is set by controls: 0 for no effect and ±100 for the full control effect; luciferase read-out
NS1 function inh: influenza NS1 inhibition. S. cerevisiae slowed by influenza A NS1, growth recovery by OD600. Potency, µM (titrated, usually from 46.1 µM), inactives show at the top dose activity, positive = more growth. 0.4% of 270,000 active. AID 2326; active means well fitted rising curve with a large enough effect; inconclusive means small, poorly fitted or top-dose-only effect; inactive means no such curve, though single readings can be large or run the other way; note: nearly all actives have a fitted effect of over 50% in size
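Growth recovery, yeast-based: influenza A NS1 expressed in S. cerevisiae causes slow growth, and suppressors are detected by OD600. The parent strain without NS1 is used as positive control.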
Lassa entry inh: inhibitors of Lassa virus binding or cell entry; Lassa virus pseudotype entry inhibition, cell reporter; control for the full effect not named in the record; Potency, µM (series often up to 37.9 µM), inactives show top-dose activity change, negative = inhibition, hits mostly inhibitors; 1.2% of 300,000 active; active means well fitted inhibition curve with a large enough effect; inconclusive means small, poorly fitted or top-dose-only effect, or effect the other way; inactive means flat fitted curve, though single readings scatter; tested in HEK293 cells; note: % is set by controls: 0 for no effect and ±100 for the full control effect; nearly all actives have a fitted effect of over 50% in size; luciferase read-out
SARS PLpro yeast: blocks SARS-CoV papain-like protease in a yeast assay; S. cerevisiae expressing SARS-CoV PLpro, growth rescue; control for the full effect not named in the record; 0.19% of 330,000 active; AID 485353; Potency, µM (highest dose often 32.9 µM), for the others: top-dose activity, positive = growth rescue; active means well fitted rising curve with a large enough effect; inconclusive means small, poorly fitted or top-dose-only effect; inactive means no such curve, though single readings can be large or run the other way; note: 0% is about no effect; nearly all actives have a fitted effect of over 55% in size; growth read by luminescence after 48 h
* = called active by the depositor; ? = inconclusive; nt = no result given; & = joins results of further samples; [ ] = dose if it differs, or a comment. Unless noted, calls come from the whole dose curve; as a rule, active = well fitted curve in the direction sought with a large enough effect; inconclusive = small, poorly fitted or top-dose-only effect, or another doubt; inactive = no such curve, though single readings can be large; an effect the other way counts as inactive or inconclusive. Potency is the fitted concentration of half-maximal effect.

SMILES	Cruzain inh Det	Cruzain inh noDet	RE007 growth inh	StopGo reporter	Marburg entry inh	NS1 function inh	Lassa entry inh	SARS PLpro yeast
CN(C(=O)c1cc2nc(-c3ccco3)cc(C(F)(F)F)n2n1)C1CCCCC1	-8.0%	?	7%	nt	-15%&-15%	13%	4%	-2%
O=C(NCc1ccccc1Cl)/C(=C\c1cccnc1)NC(=O)c1ccccc1	nt	nt	9%	?	2%[46.1 µM]	8%	nt	-2%
Cc1ccccc1NS(=O)(=O)c1ccc2[nH]cc(C(=O)N3CCCC3)c(=O)c2c1	-0.9%	-3%	nt	-4%	nt	nt	20%[46.1 µM]	nt
COc1ccc(Cl)cc1NC(=O)CSc1nccn1Cc1ccco1	-3.7%	-4%	nt	-3%	nt	nt	-4%[46.1 µM]	nt
CCO[C@@H]1OC(C(N)=O)=C[C@H](c2ccc3c(c2)OCO3)[C@H]1CCCO	nt	nt	-4%	-1%	nt	3%	nt	0%
COc1ccc(C2C(C(=O)/C=C/c3ccco3)=C(O)C(=O)N2CCN2CCOCC2)cc1OC (stereo unspecified)	nt	nt	-4%	-16%	-2%[46.1 µM]	nt	6%[46.1 µM]	-3%
COc1ccc(/C=C(/NC(=O)c2ccccc2)C(=O)NCCN2CCOCC2)cc1OC	nt	nt	-15%	-22%	?	6%	-1%	-2%
COC(=O)[C@@]1(Cc2ccc(OC)cc2)[C@H]2c3cc(C(=O)N4CCCC4)n(Cc4ccc(Cl)c(C(F)(F)F)c4)c3C[C@H]2CN1C(=O)c1ccccc1	-2.0%	?	12%	-23%	nt	nt	nt	nt
Cc1cc(N2CCCC2=O)ccc1S(=O)(=O)NCCOc1ccccc1	nt	nt	-1%	-1%	?	-3%	?	1%
O=C(CCC(=O)OCc1ccc(Cl)cc1)Nc1ccccc1	nt	nt	-3%	-3%	nt	-6%	nt	-2%
CC12CN3CCN(CC(C3)/C1=N/N=C/c1cccc([N+](=O)[O-])c1)C2	nt	nt	0%	14%	8%[46.1 µM]	-7%	6%	0%
CC(Nc1n[nH]c(=O)[nH]c1=O)C(=O)N/N=C/c1ccccc1 (stereo unspecified)	nt	nt	20%	0%	nt	-1%	nt	0%
C/C=C(\C)CN1CCC(n2nccc2NC(=O)c2ccc3c(c2)OCO3)CC1	nt	nt	-23%	-25%	6%	11%	12%	-4%
N#CCCN(C(=O)COC(=O)c1cccc(S(=O)(=O)N2CCCC2)c1)c1ccc(F)cc1	nt	nt	0%	-7%	-6%	3%	-19%	23%
CC(=O)Nc1ccc(NC(=O)c2cnn(-c3ccccc3)c2C2CCN(C(=O)OC(C)(C)C)CC2)cc1	-5.0%	-4%	nt	-28%	-16%[46.1 µM]	nt	-39%[46.1 µM]	nt
CCOC(=O)C1=C(C)N(c2ccc(OCC)cc2)C(=O)/C1=C\c1ccco1	nt	nt	12%	-10%	1%[46.1 µM]	nt	-3%	3%
NC(=O)Cn1nc([N+](=O)[O-])nc1Oc1ccc(Br)cc1	nt	nt	-26%	-12%	-11%	1%	-8%	1%
O=C(NCc1ccc(Cl)cc1)N1CCN(Cc2ccccc2)CC1	nt	nt	1%	-9%	nt	-5%	nt	4%
CCCCC(O)(c1ccc(CC)cc1)C(CN1CCOCC1)c1ccccc1 (stereo unspecified)	nt	nt	7%	-4%	nt	-5%	nt	-6%
O=C(Nc1ccc(S(=O)(=O)Nc2ncccn2)cc1)c1cccc(S(=O)(=O)N2CCOCC2)c1	nt	nt	-1%	-2%	nt	1%	nt	0%
COc1ccc(NC(=O)CN2C(=O)NC3(CCCCCC3)C2=O)cc1Cl	nt	nt	39%	-12%	?	nt	?	11%
CC(=O)Nc1ccc(S(=O)(=O)NNC(=O)c2cccc(Cl)c2)cc1	nt	nt	7%	18%	-10%[46.1 µM]	nt	-17%[46.1 µM]	-1%
CCC(=O)N1c2ccc(S(=O)(=O)CCC(=O)NCc3ccc4c(c3)OCO4)cc2CC1C (stereo unspecified)	4.3%	2%	?	-12%	20%[46.1 µM]	5%	6%	0%
COCC(=O)N(Cc1cc2ccc(C)cc2[nH]c1=O)c1cccc(C)c1	nt	nt	4%	61%[activator]	nt	25%	nt	5%
COC(=O)CCC(NC(=O)c1cc(-c2ccc3c(c2)OCCO3)oc1C)C(=O)OC (stereo unspecified)	-4.4%	?	-15%	4%	10%&10%	-22%	14%	5%
Cn1c2ccccc2n2c(=O)c(=O)n(CC(=O)c3ccc(Cl)cc3)nc12	-5.3%	5%	16%	-3%	16%	23%	-5%	11µM*
CCOc1cc2c(cc1OCC)-n1cccc1C(c1c(O)cccc1OC)NC2 (stereo unspecified)	nt	nt	4%	-1%	?	-4%	?	3%
S=C(NC1CCCCC1)N1CCOCC1	nt	nt	-7%	3%	-9%[46.1 µM]	3%	-21%	1%
O=C(c1ccc(Br)o1)N1CCN(CCc2ccncc2)CC1	nt	nt	1%	-15%	nt	2%	nt	-2%
CCOC(=O)N1CCN(C(C)C(=O)c2c[nH]c3ccccc23)CC1 (stereo unspecified)	-9.0%	-9%	-1%	8%	-14%	0%	-9%	5%
Cc1ccc2c(c1)cc1c(=O)n(CC(=O)N3CCCCC3)nc(C)n12	1.4%	1%	nt	-1%	1%[46.1 µM]	nt	nt	nt
O=C(O)C(Cc1ccccc1)n1c(=S)[nH]c2ccccc2c1=O (stereo unspecified)	nt	nt	0%	13%	?	nt	18%	0%
C/C(=N/NC(=O)c1ccc(Br)o1)c1ccncc1	-3.9%	-11%	11%	0%	8%	-3%	?	-9%
CC1=CCC(COC(=O)Nc2ccccc2)CC1 (stereo unspecified)	-2.2%	-8%	-3%	20%	0%[46.1 µM]	-111%	?	-30%
COc1ccc(C2c3c(oc4cc(C)cc(C)c4c3=O)C(=O)N2Cc2ccco2)cc1OC (stereo unspecified)	0.2%	-4%	nt	-8%	2%[46.1 µM]	nt	14%[46.1 µM]	nt
O=C1NC(=S)S/C1=C\c1cccc([N+](=O)[O-])c1	nt	nt	-16%	-26%	-26%[46.1 µM]	nt	-12%[46.1 µM]	nt
CC1CCCCN1c1nc(-c2ccc(C(C)(C)C)cc2)nc2ccccc12 (stereo unspecified)	-4.1%	3%	nt	-14%	nt	nt	?	nt
CC(C)c1ccc(NC(=O)C2CSC3(C)CCC(=O)N23)cc1 (stereo unspecified)	nt	nt	-11%	5%	11%[46.1 µM]	3%	-6%[46.1 µM]	4%
CN(CCOc1ccccc1)C(=O)c1ccc(F)c(S(=O)(=O)N2CCOCC2)c1	nt	nt	-8%	-12%	?	nt	1%	-2%
Cc1cc(C)c(NC(=O)CSc2nnc(-c3ccncc3)n2Cc2ccco2)c(C)c1	0.8%	8%	-9%	nt	-10%	-10%	-2%	-11%
CCN(Cc1nc(-c2ccccc2)no1)C(=O)c1ccco1	nt	nt	10%	-7%	15%[46.1 µM]	-3%	-1%	0%
CC(=O)c1sc2nc(CSc3nnnn3-c3ccccc3)[nH]c(=O)c2c1C	nt	nt	0%	2%	15%	nt	?	-2%
CCn1c(=N)n(CC(O)COc2ccccc2)c2ccccc21 (stereo unspecified)	-1.0%	-1%	nt	-12%	nt	nt	9%[46.1 µM]	nt
CC(C)OCCCN1CN(S(=O)(=O)c2ccccc2)c2nc3ccccc3nc21	-5.4%	27%	9%	35%[activator]	-6%	-72%	10%	-2%
Cc1ccccc1C(=O)N1CCc2c([nH]c3ccccc23)C1C(F)(F)F (stereo unspecified)	nt	nt	-17%	0%	-4%	1%	?	-4%
Cc1cc(N2CCN(C(=O)c3ccco3)CC2)c2ccccc2n1	nt	nt	-7%	-9%	nt	4%	nt	1%
CC(NC(=O)Cc1ccccc1[N+](=O)[O-])c1ccccc1 (stereo unspecified)	1.3%	-1%	nt	nt	3%	-4%	2%	12%
CN1/C(=C\C(=O)c2cccnc2)C(C)(C)c2ccccc21	0.2%	-8%	9%	18%	7%	-12%	0%	-7%
CCCn1nc(C(=O)Nc2nnc(CC)s2)c2ccccc2c1=O	nt	nt	-2%	-12%	-1%[46.1 µM]	-7%	21%	-1%
O=C1CCCN1c1ccc(S(=O)(=O)Oc2ccc(Cl)cc2)cc1[N+](=O)[O-]	6.3%	1%	-9%	?	?	-4%	?	-14%
O=C(NCCO)/C(=C/c1ccco1)NC(=O)c1ccco1	nt	nt	5%	-3%	?	nt	?	nt
COc1ccc(C(=O)Nc2cc(C)on2)c(OC)c1	nt	nt	-14%	52%[activator]	nt	-30%	nt	8%
CCOC(=O)c1cncc(C#CCOC(=O)Nc2ccc(OC(F)(F)F)cc2)c1	nt	nt	10%	-11%	nt	5%	nt	-1%
O=C(Nc1ccc(F)cc1F)c1cc2ccc3cccnc3c2[nH]1	-2.0%	25µM*	nt	38%[activator]	nt	nt	0%[46.1 µM]	nt
O=C(O)C1C2CCC(O2)C1C(=O)Nc1ccc(O)cc1 (stereo unspecified)	0.9%	-7%	-5%	-6%	?	16%	2%	-1%
CN(C)CCNc1oc(COc2ccc(-c3ccccc3)cc2)nc1C#N	1.0%	-1%	-7%	-26%	?	-13%	?	-10%
COc1ccc2o/c(=N/NC(=O)c3cccs3)c(C(N)=O)cc2c1	nt	nt	12%	10%	?	nt	-14%[46.1 µM]	2%
Cc1cccc(NC(=S)NCc2ccccc2Cl)c1C	nt	nt	-5%	29%	nt	7%	nt	1%
Cc1c(Cl)cccc1NC(=S)N1CCCN(Cc2ccc(F)cc2)C1	nt	nt	-11%	-11%	4µM*	nt	21%[46.1 µM]	-2%
CCCCNC(=O)Nc1ccc(C2SCCS2)cc1	nt	nt	5%	51%[activator]	?	-8%	-18%	-1%
O=C(CSCc1ccc(Cl)cc1)N/N=C/c1ccco1	nt	nt	17%	-13%	14%[46.1 µM]	nt	-11%[46.1 µM]	-1%
Cc1ccc2c(c1)cc(CN(Cc1cccs1)C(=O)c1ccco1)c1nnnn12	1.9%	-3%	-14%	-23%	?	-15%	16µM*	1%
CN(C)c1ccc(CNS(=O)(=O)c2ccc3c(c2)C(C)(C)C(=O)N3C)cc1	nt	nt	-5%	-8%	nt	0%	nt	8%

Bioassay records (PubChem BioAssay)
